Compound activity deposited in PubChem BioAssay by National Center for Advancing Translational Sciences (NCATS).
TRPML1 ag: qHTS for Agonists of the Human Mucolipin Transient Receptor Potential 1 (TRPML1); Mucolipin-1 (Homo sapiens), Q9GZU1; TRPML1-expressing cells, Ca2+ dye fluorescence, FDSS; host cell line not named in the record; reference of the full effect not given here; activation, % (no concentration beside the values); hit rate 0.12% among 410,000; AID 624414, 2012; in the data active = activation above about 50%; inconclusive = about 30% to 50%; inactive = below about 30%; further: 0% is about no effect; the text of the record puts the active cut at 80%
Target sequence (Q9GZU1 whole entry, looked up): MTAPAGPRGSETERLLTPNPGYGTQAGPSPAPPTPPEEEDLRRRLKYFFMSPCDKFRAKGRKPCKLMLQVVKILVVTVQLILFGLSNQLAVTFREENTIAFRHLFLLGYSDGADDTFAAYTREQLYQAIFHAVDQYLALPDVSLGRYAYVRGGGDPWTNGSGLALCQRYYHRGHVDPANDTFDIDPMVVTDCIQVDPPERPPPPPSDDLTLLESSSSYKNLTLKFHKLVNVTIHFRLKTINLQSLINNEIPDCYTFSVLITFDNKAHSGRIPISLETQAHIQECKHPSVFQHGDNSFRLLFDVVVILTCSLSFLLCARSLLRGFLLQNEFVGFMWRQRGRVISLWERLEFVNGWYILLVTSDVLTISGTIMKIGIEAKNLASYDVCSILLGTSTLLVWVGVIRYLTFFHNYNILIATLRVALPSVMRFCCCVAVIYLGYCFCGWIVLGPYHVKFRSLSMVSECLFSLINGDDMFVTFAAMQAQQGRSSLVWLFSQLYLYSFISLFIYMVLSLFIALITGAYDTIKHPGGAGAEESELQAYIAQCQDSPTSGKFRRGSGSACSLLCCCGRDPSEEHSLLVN
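TRPML1-DL cells, Tet-induced overnight (~16 h, 37 degrees C), loaded 45-90 min at room temperature with Ca8 no-wash calcium dye plus quencher. FDSS fluorescence: 10 s baseline, compound pin-transfer, 110 s agonist read, then EC80 54-4 (4uM final) and 110 s antagonist read.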
Sfp PPTase inh: qHTS Assay for Inhibitors of Bacillus subtilis Sfp phosphopantetheinyl transferase (PPTase); Biochemical Sfp PPTase activity, qHTS; AID 1490, 2009; Potency, µM, for the others: max response, negative = inhibition, actives largely listed as inhibitors; 4'-phosphopantetheinyl transferase ffp (Bacillus subtilis), Q9F4F7; hit rate 3.5% among 310,000; active means well fitted inhibition curve with a large enough effect; inconclusive means small, poorly fitted or top-dose-only effect, or another doubt; inactive means no such curve, though single readings can be large or run the other way;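 further: the enzyme is Sfp with the accession as filed and its product quenches rhodamine fluorescence; potency means the concentration at half of the fitted maximal effect; 0% = enzyme reaction without inhibitor and -100% = no enzyme wells; top concentration of the series not given in the record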
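With Hepes-Na pH 7.6 buffer containing 10 mM MgCl2, Sfp (15 nM) modified BHQ-2-YbbR (12.5 uM) using rhodamine-CoA (5 uM). Two reads 30 minutes apart at 525/598 nm yielded each well's rate.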
ClpP mod: qHTS Assay for Activators of ClpP; purified B. subtilis ClpP, FRET peptide cleavage, 20 min; AID 651965, 2013; hit rate 1.9% among 340,000; ATP-dependent Clp protease proteolytic subunit (Bacillus subtilis (strain 168)), P80244; Potency, µM (titrated, usually from 57.5 µM), for inactives: at the highest dose activity change, negative = active; active = well fitted falling curve with a large enough effect; inconclusive = small, poorly fitted or top-dose-only effect; inactive = no such curve, though single readings can be large or run the other way; further: potency means the concentration at half of the fitted maximal effect; the source files actives as falling curves though it sought activators and does not explain the sign; nearly all actives have a fitted effect of over 65% in size; many hits overshoot -100%
Target sequence (P80244 whole entry, looked up): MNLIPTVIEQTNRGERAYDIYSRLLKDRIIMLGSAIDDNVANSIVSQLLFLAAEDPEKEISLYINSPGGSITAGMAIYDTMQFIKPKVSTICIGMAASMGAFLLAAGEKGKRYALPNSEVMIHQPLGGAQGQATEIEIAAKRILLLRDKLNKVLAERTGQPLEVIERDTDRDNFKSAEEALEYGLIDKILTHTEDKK
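ClpP 10 microg/mL final, pH 8 Tris/KCl buffer with BSA, glycerol, Tween-20; compound pinned in; FRET-FV substrate; RT 20 min; Ex320/Em430; ΔFRET vs ADEP 5.8 microM, DMSO, no enzyme.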
Menin MLL FP FL: qHTS Assay for Inhibitors Targeting the Menin-MLL Interaction in MLL Related Leukemias: Competition With Fluorescein Labeled MLL-derived Peptide; Fluorescence polarization, fluorescein-MLL peptide displacement from menin; FP activity change, % at 61.4 µM; 290,000 tested, under 10 active; AID 1766, 2009; inconclusive = falling polarisation curve, or a change in total fluorescence; inactive = total fluorescence flat and polarisation flat or rising; no compound was filed as active; the % refers to the polarisation; negative = inhibition;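 further: % of control where 0% means no effect; inhibitors lower the polarisation; unlabelled MLL peptide was the positive control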
TRPML1 blocker: qHTS for Inhibitors of the Human Mucolipin Transient Receptor Potential 1 (TRPML1); Mucolipin-1 (Homo sapiens), Q9GZU1; TRPML1-inducible cells, Ca2+ dye fluorescence, FDSS; stronger effect = lower value; inhibition of EC80 agonist-evoked calcium signal; activity change, negative = inhibition, % (no concentration beside the values); hit rate 0.02% among 390,000; in the data active means activity change below about -50%; inconclusive means about -30% to -50%; inactive means above about -30%;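 further: stimulus is agonist 54-4 at its EC80 concentration; on the % scale 0 is the no-effect control and ±100 the full control effect; compound concentration not given in the record; the text of the record puts the active cut at -80%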
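TRPML1-DL cells, Tet-induced overnight (~16 h, 37 °C) at 1,500 cells/well, were loaded with Ca8 no-wash dye plus quencher for 45-90 min at room temperature. Compounds were pinned during FDSS kinetic reading; agonist 54-4 at EC80 (4 uM final) then added.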
PINK1 expr mod: A Quantitative High throughput Screen to Identify Chemical Modulators of PINK1 Expression | PINK1 immunofluorescence, high-content cytometry, 24 h | hit rate 0.2% among 410,000 | AID 624263, 2012 | Potency, µM (series often up to 76.6 µM), inactives show top-dose activation (PINK1 increase), most hits filed as activators; active = well fitted activation curve with a large enough effect; inconclusive = small, poorly fitted or top-dose-only effect; inactive = flat fitted curve, though single readings scatter; cell line not stated here;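 further: potency means the concentration at half of the fitted maximal effect; % of control where 0% means no effect; nearly all actives have a fitted effect of over 65% in size; a mitochondrial uncoupler was the plate control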
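PINK1 protein level read as immunofluorescence by microplate cytometer in a fixed, stained stable cell line after 24 h exposure to five compound concentrations, with CCCP as control.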
TRPV1 potentiator: HTS Assay for Compounds that Act as Potentiators of the Vanilloid Receptor 1 | potentiation, % at 8.33 µM | TRPV1-expressing cells, Fluo-8 calcium influx, capsaicin EC20 potentiation; host cell line not named in the record; control for the full effect not named in the record | hit rate 0.02% among 320,000 | Transient receptor potential cation channel subfamily V member 1 (Homo sapiens), Q8NER1 | AID 540277, 2011; active means potentiation above 80%; inconclusive means 30% to 80%; inactive means below 30%; further: 0% is about no effect
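TRPV1-expressing cells were cultured overnight at 35.5C and loaded with Fluo-8 calcium dye for 40 to 90 min at room temperature. After a 10 s baseline, compound was added and calcium influx was read kinetically for 3 min (ex 480/em 520 nm).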
* marks the source's active call; other numbers are inactive results; ? = inconclusive; . = no result given; [ ] = dose if it differs, or a comment.

Structure,TRPML1 ag,Sfp PPTase inh,ClpP mod,Menin MLL FP FL,TRPML1 blocker,PINK1 expr mod,TRPV1 potentiator
O=C(CSc1nc2ncccc2[nH]1)Nc1ccccc1-c1ccccc1,0.5,-2%,-4.3%,-3.6,1,-0.3%,-5
COc1ccc(N(CC(=O)NCc2cccs2)S(=O)(=O)c2c(C)n[nH]c2C)cc1,-1.3,6%,0.9%,2.5,2,0.0%,2
CC(=O)N1CCN=C1SCc1ccc(F)cc1,-0.1,8%,1.1%,1.4,7,3.3%,5
COc1ccccc1NC1SC(=O)N(c2ccccc2)C1=O (stereo not drawn),-0.5,11%,8.2%,1.4,0,0.1%,-3
COc1cccc(-n2cnnc2SCC(=O)NC2CC2)c1,-0.2,.,0.5%,.,7,1.4%,-14
COc1ccc(NC(=O)Nc2cccc(F)c2)c(OC)c1,-0.1,-1%,.,-1.8,-3,1.6%,1
Cc1ccccc1CCN1CCCC(CN(C)C(=O)c2ccc3ncccc3c2)C1 (stereo not drawn),-0.3,-7%,.,-6.5,-7,1.8%,-1
CC12CCC3C(CCC4CC(O)CCC43C)C1CC(O)C2 (stereo not drawn),0.6,.,.,.,-3,0.5%,.
Cc1ccccc1Nc1sc(C(=O)c2ccc(F)cc2)c(N)c1C(=O)NCCc1ccccc1,4.9,.,-3.9%,.,-14,15%,.
CCN1C(=O)[C@@H]2[C@@H](c3ccc(-c4ccc(Cl)c(Cl)c4)cc3)N3CCCC[C@@]3(C(=O)OC)[C@@H]2C1=O,0.4,.,1.1%,.,68,-0.2%,-22
CC(O)CNc1ccc(-c2n[nH]c(=O)c3ccccc23)cc1[N+](=O)[O-] (stereo not drawn),0.1,9%,.,0.4,-10,0.5%,-6
CCOC(=O)c1cccc(NC(=O)c2ccco2)c1,0.3,-5%,-0.2%,2.4,16,5.9%[38.3 µM],-3
O=C(Nc1cccc(OC(F)(F)F)c1)C1Cc2c(-c3ccccc3Oc3ccccc3)ccnc2O1 (stereo not drawn),1.0,.,-6.9%,.,.,9.6%,.
Nc1cccc(-c2csc(-n3ncc(C(=O)O)c3C(F)(F)F)n2)c1,.,10%,-0.1%,0.9,.,1.0%,17
COc1cccc(CN(C)C(=O)c2ccc(OCC(=O)N3CCOCC3)c(OC)c2)c1,2.1,.,-1.3%,.,-19,-0.4%,-10
COc1ccccc1-c1cc(C(F)(F)F)c(C#N)c(=O)[nH]1,0.8,28%,.,-0.9,-13,1.2%,19
Cc1cc(C)nc(SCc2nnc(SCC(=O)Nc3ccc(C)c(C)c3)o2)n1,0.3,0%,274%,-0.4,-4,4.2%,-10
COC(=O)c1sc2nc(CN3CCOCC3)nc(N3CCOCC3)c2c1C,-0.5,10%,-3.9%,4.8,1,1.8%,23
COc1ccc2[nH]cc(CCNc3ccnc(-c4cccc(C#N)c4)n3)c2c1,.,10%,.,-5.4,.,0.0%,.
CCOC(=O)CSC1=C(C#N)C(=O)NC(c2ccc(OC)c(OC)c2)S1 (stereo not drawn),1.4,40µM*,-2.5%,0.9,24,20%,12
N#Cc1ccc(CN2CCCC3(CCN(C(=O)c4cnccn4)CC3)C2)cc1,.,9%,.,0.0,.,-1.0%,.
CCC1S/C(=N/N=C/c2ccco2)N(Cc2ccccc2)C1=O (stereo not drawn),3.6,?,.,21,-11,-0.5%,7
O=C(c1ccc(Cl)nc1)N1CCN(S(=O)(=O)c2ccc(Cl)cc2)CC1,-0.7,15%,.,-1.4,-16,-0.7%,1
COc1ccc(-c2nnc(SC)o2)c(OC)c1,-0.7,-6%,.,-4.5,5,-0.1%,-29
COc1ccc(CC(=O)NCC2COc3ccccc3O2)cc1 (stereo not drawn),-1.6,5%,-0.4%,2.1,24,-0.6%,-17
Cc1ccccc1N1C(=O)c2cccc([N+](=O)[O-])c2C1=O,0.3,12%,.,-2.3,-26,0.5%,5
COc1ccc(C2C(C(=O)NCc3cccnc3)c3cc(OC)c(OC)cc3C(=O)N2C)cc1 (stereo not drawn),0.4,?,-7.6%,-1.8,-10,-3.0%,14
CCc1ccccc1N(CC(=O)N1CCCC1)S(C)(=O)=O,.,12%,1.5%,3.4,.,0.9%,-2
CC1CN(CCCOc2ccccc2[N+](=O)[O-])CC(C)O1 (stereo not drawn),0.7,?,-6.0%,0.8,-4,-5.4%[38.3 µM],4
COc1cccc(OC)c1C(=O)OCCCOC(=O)c1c(OC)cccc1OC,1.0,6%,-5.1%,.,23,0.4%,-1
CC1=CC(C)(C(Cl)(Cl)Cl)C(C)=CC1=NO (stereo not drawn),2.3,.,-1.3%,.,3,10%,.
COc1ccc(CCN(C)c2ncnc3sccc23)cc1OC,-0.1,18%,-0.2%,2.2,?,2.3%,0
Cc1cc(C(=O)NCCc2ccc(Cl)cc2)c(C)o1,0.2,8%,-5.6%,.,7,2.6%,-5
CCN(CC(=O)Nc1ccccc1C(F)(F)F)C(=O)COc1cccc2c1OC(C)(C)C2,0.5,.,-2.3%,.,28,-0.7%,19
COc1ccc(CCN2C(=O)C=CC2=O)cc1OC,1.1,.,0.9%,.,-11,-1.3%,.
Cn1c(NCc2ccccc2)nc2cc(-c3cccc(C(F)(F)F)c3)sc2c1=O,0.5,.,-11%,.,-17,6.7%,.
O=C(CCN1CCCC1)Nc1ccc(Br)cc1,0.1,-4%,1.1%,1.3,7,-0.9%,12
COc1cccc(/C=N/NC(=O)c2ccc(=O)n(C)c2)c1O,0.5,14%,0.3%,-3.6,-4,-0.1%,5
CCN(CC)S(=O)(=O)c1cccc(C(=O)Nc2cc3oc4ccccc4c3cc2OC)c1,-0.6,-11%,-10%,-0.7,55,5.4%,7
CCCc1cc(=O)[nH]c(SCC(=O)OCc2ccccc2)n1,2.7,0%,-0.8%,4.3,-3,-0.7%,?
OC(COCC1COc2ccccc2O1)CN1CCN(c2ccc(F)cc2)CC1 (stereo not drawn),-0.4,0%,-17%,3.1,2,0.2%,-2
CCSc1nc2c(cnn2-c2ccc(C)c(C)c2)c(=O)[nH]1,-1.4,7%,-0.3%,-0.5,-5,-0.6%,-25
CCOC(=O)c1cn(-c2ccccc2)nc1-c1cccnc1,0.4,12%,?,6.3,5,-0.5%,-14
CCOc1ccccc1CN1CCNC(=O)C1CC(=O)NCc1nc(C)cs1 (stereo not drawn),1.9,4%,1.0%,.,3,-1.5%,-4
Cc1c(Br)c(C(F)(F)F)nn1CC(=O)N1CCCC1,0.6,6%,0.2%,-1.9,35,3.0%[38.3 µM],-2
O=C(O)C1C2C=CC(C2)C1C(=O)NC1CCN(Cc2ccccc2)CC1 (stereo not drawn),1.9,22%,-0.9%,-0.2,28,4.2%,-1
O=C(Cn1cc2c(n1)CCCC2)NCCCN1CCCC1,-0.3,5%,0.7%,11,22,2.9%,8
CCn1c(C(=O)O)c(CC(=O)Nc2ccc(Br)cc2C)c2ccccc21,-0.6,13%,-5.5%,-8.4,-14,-2.3%,-14
Cc1cc(C)cc(-n2nc(C)cc2N)c1,-0.3,5%,-0.8%,1.9,-12,-0.5%[38.3 µM],15
CC1=CC(C)(C)Nc2ccc(OC(=O)CCN3C(=O)c4ccccc4C3=O)cc21,2.6,13%,-9.5%,2.9,13,-1.0%,-5
COC(=O)c1cc(-c2c(C)oc3cc(OC)ccc3c2=O)c(C)o1,1.3,20%,1.2%,3.1,-21,-0.6%[38.3 µM],-5
CCN(Cc1cccc(S(=O)(=O)O)c1)c1ccc(C(=C2C=CC(=[N+](CC)Cc3cccc(S(=O)(=O)O)c3)C=C2)c2ccccc2S(=O)(=O)[O-])cc1,-0.6,.,-6.5%,.,.,1.0%,.
CC(=O)C1(O)C(C)CC2C3CCC4CC(O)CCC4(C)C3=CCC21C (stereo not drawn),1.6,-4%,-2.2%,0.6,-8,?,.
CS(=O)(=O)N(Cc1ccccc1)c1ccc(C(=O)Nc2ccccc2Sc2ccccc2)cc1,0.9,1%,-1.0%,1.9,-3,-2.2%,12
CCCn1ncc(CN2CCN(Cc3ccc(C)o3)C(CCO)C2)c1C (stereo not drawn),0.8,24%,.,3.1,18,-1.6%,-10
Cc1cc(C)c2c(c1)NC(=O)C2(O)c1c[nH]c2ccccc12 (stereo not drawn),0.0,.,1.2%,.,-25,1.2%,.
